# Screens as filed in PubChem.
# Vaccinia Venus: qHTS for Stage-Specific Inhibitors of Vaccinia Orthopoxvirus: Venus Reporter Primary qHTS. Vaccinia virus Venus reporter expression, fluorescence. Potency, µM (titrated, usually from 36.5 µM), for inactives: at the top dose activity change, negative = inhibition, actives largely listed as inhibitors. actives 0.46% (n = 330,000). AID 720580, 2013; active means well fitted inhibition curve with a large enough effect; inconclusive means small, poorly fitted or top-dose-only effect; inactive means no such curve, though single readings can be large or run the other way; tested in A549 cells; note: nearly all actives have a fitted effect of over 30% in size; inactives centre near -10
# Vaccinia mCherry: qHTS for Stage-Specific Inhibitors of Vaccinia Orthopoxvirus: mCherry Reporter Primary qHTS; Vaccinia virus mCherry reporter infection, fluorescence; about a quarter of the inactives have no number; Potency, µM (top dose mostly 36.5 µM), for the others: at the highest dose activity change, negative = inhibition, most hits filed as inhibitors; actives 0.63% (n = 310,000); AID 720579, 2013; active = well fitted inhibition curve with a large enough effect; inconclusive = small, poorly fitted or top-dose-only effect; inactive = no such curve, though single readings can be large or run the other way; tested in A549 cells; note: nearly all actives have a fitted effect of over 35% in size; inactives centre near -10
# * marks the source's active call; other numbers are inactive results; i = inactive; ? = inconclusive; . = no result given; [ ] = dose if it differs, or a comment. % is set by controls: 0 for no effect and ±100 for the full control effect; potency is the fitted concentration of half-maximal effect.
SMILES,Vaccinia Venus,Vaccinia mCherry
O=S(=O)(NCc1ccc(F)cc1)c1ccc2[nH]c3c(c2c1)CCCCC3,-13%,-3%
O=CN1CCN(S(=O)(=O)c2ccc(Cl)c(C(=O)O)c2)CC1,-12%,-4%
Cc1c(CN(C)C(=O)c2cc(-c3ccccc3)nc3ccc(Br)cc23)cnn1C,9%,4%
CCOc1ccc(CCNC(=O)COC(=O)c2ccc(F)c(S(=O)(=O)N3CCOCC3)c2)cc1OCC,-11%,-17%
CCCn1nnnc1NCc1ccc(CC)cc1,1%,-5%
C[C@@H]1CN([C@H](C)CO)C(=O)c2cc(C3=CCCCC3)cnc2O[C@@H]1CN(C)Cc1ccccc1C(=O)O,-11%,i
CC[C@]1(C(=O)OC)[C@H]2C(=O)N(C)C(=O)[C@H]2[C@H]2CN=C(SCc3ccc(C)cc3)N21,5%,-13%
O=C(NCc1n[nH]c(=S)n1-c1ccc(Br)cc1)c1cccs1,1%,0%
CCN(CC)C(=O)C1=C(C)N(CCCN2CCCC2=O)C(=O)C(CC(=O)NCCc2ccccn2)C1 (centres undefined),-3%,i
COC(=O)c1sc2cc([N+](=O)[O-])cc(SCC(C)C)c2c1N,-18%,-19%
CN(Cc1ccc2nsnc2c1)Cc1nc(Cc2cccc(F)c2)no1,-12%,?
COc1cc2ccccc2cc1C(=O)OCC(=O)N(C)c1c(N)n(Cc2ccccc2)c(=O)[nH]c1=O,-21%,-28%

# Next section; the last six above are carried over.
SMILES,Vaccinia Venus,Vaccinia mCherry
CC[C@]1(C(=O)OC)[C@H]2C(=O)N(C)C(=O)[C@H]2[C@H]2CN=C(SCc3ccc(C)cc3)N21,5%,-13%
O=C(NCc1n[nH]c(=S)n1-c1ccc(Br)cc1)c1cccs1,1%,0%
CCN(CC)C(=O)C1=C(C)N(CCCN2CCCC2=O)C(=O)C(CC(=O)NCCc2ccccn2)C1 (centres undefined),-3%,i
COC(=O)c1sc2cc([N+](=O)[O-])cc(SCC(C)C)c2c1N,-18%,-19%
CN(Cc1ccc2nsnc2c1)Cc1nc(Cc2cccc(F)c2)no1,-12%,?
COc1cc2ccccc2cc1C(=O)OCC(=O)N(C)c1c(N)n(Cc2ccccc2)c(=O)[nH]c1=O,-21%,-28%
COc1cccc(N2CCN(C(=O)C(CCSC)NS(=O)(=O)c3ccc4c(c3)oc(=O)n4C)CC2)c1 (centres undefined),-2%,-5%
COc1ccc(NC2CCCN(C(=O)CCC3=NNC(=O)CC3)C2)cc1 (centres undefined),-10%,-17%
COc1ccc(OC)c(NC(=O)C2(C)CCN2Cc2cccc(OC)c2OC)c1 (centres undefined),-20%,3%
Cc1cc(/C=C(\C#N)C(=O)O)c(C)n1-c1ccc(Br)cc1,1%,6%
O=C(OCc1cc2ccccc2[nH]c1=O)c1cccnc1,-2%,i
CCCN(CCC)C(=S)NC(=O)c1ccc(-c2ccccc2)cc1,-19%,0%
CNC(=S)/N=C(/Nc1ccccc1)c1ccccc1,2%,i
Cc1csc(NC(=O)C(NC(=O)c2ccccc2F)C(C)C)n1 (centres undefined),-6%,i
CC(C)(Cc1ccc(O)cc1)NC(=O)c1ccccc1,-17%,-10%
CCn1c(SCC(=O)Nc2cc(C)on2)nnc1-c1ccc(OC)cc1,-15%,i
CC1CCCN(S(=O)(=O)CCNC(=O)c2ccccc2)C1 (centres undefined),-4%,-12%
Cc1cc(C)n(-c2ncc3c(n2)N(C)CCOC3=O)n1,-4%,-11%
CCc1nnc(NC(=O)c2ccc(S(=O)(=O)N3CCCCC3)cc2)s1,-10%,-2%
Cc1ccsc1C(=O)OCC(=O)c1cc(C)n(CC2CCCO2)c1C (centres undefined),-12%,-13%
Cc1ccc(Sc2ncnc3onc(C)c23)c(C)c1,-3%,?
CC1(NC(=O)Cc2ccc(S(=O)(=O)N3CCOCC3)s2)CCS(=O)(=O)C1 (centres undefined),-5%,-17%
O=C(CN1C(=O)S/C(=C/c2cccn2-c2ccc(O)cc2)C1=O)N1CCCC1,-24%,-19%
CCCCNC(=O)COC(=O)c1ccc(SC)cc1OC,-11%,-9%
CCCc1c(C(=O)Nc2ccc(N3CCOCC3)cc2)cnn1-c1ccccc1,-9%,-5%
O=C(CCCCCn1c(=O)[nH]c2ccccc2c1=O)NCc1ccc(Cl)cc1,-10%,-8%
Cc1cccc(NC(=O)CSc2nc3ccccc3c3nc(CCc4c(C)n[nH]c4C)nn23)c1,-16%,-29%
c1ccc(-c2ncc3ccccn23)cc1,2%,i
CC(C)CN1C(=O)/C(=C(/C#N)C(=O)NC2CCCCC2)c2ccccc21,-1%,-20%
Cn1cc(CCCC(=O)NCc2cccc(Br)c2)c2ccccc21,-7%,-5%
CC(C)C(C)(C#N)NC(=O)CSc1nc2scc(-c3ccc(F)cc3)c2c(=O)n1Cc1ccccc1 (centres undefined),-13%,-12%
CC(C)n1c(O)c(N=Nc2ccccn2)c2ccccc21,-6%,i
CCOc1ccc(S(=O)(=O)Nc2cccnc2)cc1,-6%,-15%
CCOc1ccc(NC(=O)CC(Cc2cc(C)cc(C)c2)C(=O)O)cc1 (centres undefined),-3%,-7%
CC(=O)NC1(C)CCC2CC1C(C)=NC2(C)C (centres undefined),5%,0%
Cc1ccc(OCCCC(=O)Nc2ccc(S(=O)(=O)Nc3ccccn3)cc2)cc1,1%,i
COc1ccc(NC(=O)c2cc3c(s2)-c2c(C)cccc2OC3)cc1Cl,?,?
CCN1CCN(c2ccc(S(=O)(=O)N3CCOCC3)cc2NC(=O)c2ccc(Cl)s2)CC1,-9%,-18%
COc1ccccc1-c1ccc(SCc2ccc(C)cc2)nn1,-17%,i
COC1CCN(C(=O)CC2C(=O)NCCN2CC2CCCCC2)CC1 (centres undefined),3%,i
CC(C)C[C@H](NC(=O)C1CCN(S(=O)(=O)c2ccccc2)CC1)C(=O)NCc1ccncc1,0%,i
c1ccc2c(c1)CCN(c1nc3ccccc3n3cnnc13)C2,-16%,-8%
Cc1ccc(C(=O)OCC(=O)NCCc2ccc(S(N)(=O)=O)cc2)o1,-5%,i
CCOC(=O)CC1C(=O)NCCN1S(=O)(=O)c1ccc(Cl)cc1 (centres undefined),-9%,-9%
Clc1cccc(CNc2ccn3nc(-c4ccccc4)cc3n2)c1,-1%,-5%
Cc1sc(NC(=O)c2ccccc2)c(C(=O)N2CCN(C)CC2)c1C,-7%,-3%
Cc1cccc(CC2SC(N3CCN(c4ccccc4)CC3)=NC2=O)c1 (centres undefined),-14%,-21%
CC1(O)C[C@]2(C)N(O)C3CCCC[C@@H]3N2O1 (some centres undefined),2%,-16%[1.46 µM]
COc1ccc(-c2nc(CCNS(=O)(=O)c3ccc4c(c3)OCCO4)cs2)cc1,-25%,?
O=C(NCc1ccccc1)Nc1cccn(Cc2ccccc2)c1=O,-14%,-17%
O=C(COC(=O)c1cccs1)NCc1ccc2c(c1)OCO2,-4%,-12%
CC(C)(C)OC(=O)NCCCC[C@@H](C(=O)NCCCCCCCCCCC(=O)N1CCN(C(=O)OC(C)(C)C)CC1)n1cc(CCCC(=O)O)nn1,2%,-15%
CC(=O)N1c2c(ccc3ccccc23)C(C)CC12CCCCC2 (centres undefined),-8%,.
CCCCOc1cccc(C(=O)Nc2ccc(NC(=O)c3ccco3)cc2)c1,?,-29%
O=C(Nc1cccc2ccccc12)c1ccc2sc([C@H]3C[C@H](O)[C@@H](CO)O3)nc2c1,-9%,i
CN1C(=S)SC(/[N+]([O-])=C\c2ccc(Cl)cc2)C1(C)C (centres undefined),-16%,-3%
Cn1c(=O)c2c(-c3ccccc3)n3c(c2n(C)c1=O)C(c1ccco1)Nc1ccccc1-3 (centres undefined),-13%,-27%
Cc1cc(OCC(=O)N[C@@H](CSCc2ccccc2)C(=O)O)c2c(C)c(C)c(=O)oc2c1,-1%,-6%
CCCCn1cc2c(c1-c1ccccc1Br)c(=O)n(C)c(=O)n2C,0%,-9%
CCOC(=O)C1CCCN(S(=O)(=O)c2ccc3c4c2CC(=O)N4CC(C)S3)C1 (centres undefined),-7%,?
COc1cccc(OC)c1C(=O)N1CCN(Cc2ccc3c(c2)OCO3)CC1,-23%,.
CCOC(=O)Cn1c(C)nc2c(C(=O)OCC)sc(C)c2c1=O,3%,.
CCC(C(=O)N1CCN(c2ccccc2)CC1)n1nc(C)c2sc3ccccc3c2c1=O (centres undefined),-11%,-9%
CCc1ccc(C2c3c(oc4ccc(F)cc4c3=O)C(=O)N2CCc2ccc(OC)cc2)cc1 (centres undefined),?,?
O=C(Nc1ccc(F)c([N+](=O)[O-])c1)c1cccn(Cc2ccccc2)c1=O,-21%,-5%
COc1ccc(N2CCN(C(=O)CSc3nnc(Cn4nnc5ccccc54)n3C)CC2)cc1,-2%,i
# Further compounds:
SMILES,Vaccinia Venus,Vaccinia mCherry
Cc1ccccc1NC(=O)CCn1nc(-c2ccccc2)c2ccccc2c1=O,-20%,0%
Cc1ccc2nc(N)nnc2c1,-5%,i
COc1ccccc1C(C)NCC(=O)c1c(C)[nH]c2ccccc12 (centres undefined),-10%,-13%
Cc1ccc(C)c(NC(=O)CN(C)C(=O)C2CCN(S(=O)(=O)c3ccc4c(c3)OCCO4)CC2)c1,-29%,-9%
CC(C)CCNC(=O)C(c1ccc(O)cc1)N(Cc1cccs1)C(=O)C1COc2ccccc2O1 (centres undefined),28µM*,11µM*
CC(C)(C)c1ccc(Oc2nc3ccccn3c(=O)c2/C=C(\C#N)c2nc3ccccc3[nH]2)cc1,2%,-14%
Cc1onc(-c2ccccc2Cl)c1-c1nc(-c2ccncc2)no1,-22%,.
O=C(NCc1cccnc1)c1ccc(Cn2c(=S)[nH]c3ccc(Br)cc3c2=O)cc1,-8%,i
Cc1ccc(S(=O)(=O)N2c3ccccc3NC(=O)C2CC(=O)Nc2ccccc2)cc1 (centres undefined),?,.
COc1ccc(N2C(=O)C3NN=C(C(=O)OCc4ccccc4)C3C2=O)cc1 (centres undefined),0%,i
O=C(COc1ccc(Cl)cc1Cl)Nc1cccc2cccnc12,-3%,-6%
O=C(CSc1nnc(-c2ccc(Cl)cc2Cl)n1C1CCCCC1)N1CCCC1,?,.
CCOC(=O)Cc1csc(NC(=O)CSc2nnnn2-c2ccc(C)cc2C)n1,-8%,-11%
O=C(O/N=C/c1cccc([N+](=O)[O-])c1)C1CC1,4%,.
Cc1ccc(C)c(OCC(=O)N2CCCN(C)CC2)c1,-12%,i
Cc1ccc(S(=O)(=O)NCCC(=O)NNC(=O)C2COc3ccccc3O2)cc1 (centres undefined),-18%,i
O=C(NCc1ccc(Cl)cc1)NCC(F)(F)F,-5%,-16%
COC(=O)C1=C(c2ccc(F)cc2OCc2ccccc2)C[C@@H]2CC[C@H]1N2C(=O)N1CCCCC1,?,-13%
Nc1ccc(Cl)cc1/C(=N/O)c1ccccc1,-18%,-25%
COC(=O)c1ccc(NC(=O)C(OC)c2ccccc2)cc1 (centres undefined),-12%,-15%
O=C(Nc1ccc(F)cc1)NC1CCN(Cc2ccccc2)CC1,-13%,?
CC(=O)Nc1c(Cl)c(Cl)c2c(c1Cl)C(=O)c1cc(Cl)ccc1-2,-6%,i
O=C(Nc1ccc(Cc2ccncc2)cc1)c1ccc(S(=O)(=O)N2CCOCC2)cc1,?,?
Cc1ccc(S(=O)(=O)Nc2cc3c(C(=O)OCc4ccccc4)c(C)oc3c3ccccc23)cc1,-3%,-4%

# Profiles as entered above.
# CCOc1ccc(S(=O)(=O)Nc2cccnc2)cc1 across the screens: Vaccinia Venus: -6%; Vaccinia mCherry: -15%
# COc1cccc(N2CCN(C(=O)C(CCSC)NS(=O)(=O)c3ccc4c(c3)oc(=O)n4C)CC2)c1 (centres undefined) across the screens: Vaccinia Venus: -2%; Vaccinia mCherry: -5%

# Following part.
SMILES,Vaccinia Venus,Vaccinia mCherry
CC(C)COc1ccc(C(=O)N/C(=C\c2cccc([N+](=O)[O-])c2)C(=O)O)cc1,-9%,-9%
O=C(N/N=C/c1c(Cl)cccc1Cl)C(=O)NC1CC1,-13%,i
C=CCCN(Cc1ccccc1)S(=O)(=O)c1ccccc1Br,-6%,i
O=C(O)C1=C(OCc2ccc(F)c(F)c2)C(=O)NCC1,2%,-2%
COc1ccc(OCC(=O)Nc2ccc(C(=O)OCc3cc(=O)n4nc(C)sc4n3)cc2)cc1,-26%,i
CP(=O)(Nc1ccc(Cl)cc1)c1nc2c(s1)CCCC2 (centres undefined),0%[7.34 µM],0%[7.34 µM]
Cc1ccsc1CNC(=O)c1c(-c2ccccc2)noc1C,-3%,i
CCOC(=O)COc1ccc(C2CC(C)=NN2c2ccccc2)cc1 (centres undefined),-6%,-16%
